High-throughput results deposited in PubChem by several laboratories.
GALR2 agonist – GALR2 receptor agonists, primary screen, cell-based. GALR2-expressing cells, agonist activation read-out. activation, %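 (tested at 5 µM)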. AID 803, 2007. 140,000 compounds, 0.48% hits;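 active = above mean plus 3 SD of all compounds, about 5% in these data, not always enough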;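 also: 0% = vehicle buffer wells and 100% = reference agonist at full effect; tested in CHO reporter cells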
Target sequence (O43603 whole entry, looked up): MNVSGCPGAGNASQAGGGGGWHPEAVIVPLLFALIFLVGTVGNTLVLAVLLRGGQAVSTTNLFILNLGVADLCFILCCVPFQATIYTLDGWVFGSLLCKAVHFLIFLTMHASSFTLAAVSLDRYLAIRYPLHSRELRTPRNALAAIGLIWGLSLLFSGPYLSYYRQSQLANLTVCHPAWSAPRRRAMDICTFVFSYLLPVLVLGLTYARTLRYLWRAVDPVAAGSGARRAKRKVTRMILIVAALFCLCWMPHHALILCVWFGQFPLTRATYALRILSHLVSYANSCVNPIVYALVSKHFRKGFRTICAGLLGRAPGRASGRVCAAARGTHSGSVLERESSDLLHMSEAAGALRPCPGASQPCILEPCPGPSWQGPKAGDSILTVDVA
PKD1 inh – inhibitors of human PKD1 kinase, biochemical, fluorescence polarization; 200,000 compounds, 0.056% hits; PKD1 kinase fluorescence polarization assay; Serine/threonine-protein kinase D1 (Homo sapiens), Q15139; inhibition, %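 (about 10 µM by stock and volumes)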;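 active = inhibition of 50% or more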;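 also: controls were vehicle for no effect and a reference inhibitor for full effect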
HSV augment – enhancers of HSV replication in host cells, fold increase, host cell viability. HSV replication augmentation in cells. maximum fold increase. 220,000 compounds, 0.005% hits;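 active = peak rise of 1.5-fold or more in the series; inconclusive = self-fluorescent or not available for retest; tested in PC3 cells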;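 also: first round at 10 µM; read as green reporter fluorescence; hits show the peak of a series up to 25 µM; 1 = signal of infected wells without compound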
INS promoter inh – inhibitors of insulin promoter-driven GFP, primary screen, imaging, TRM-6 cells (human fetal islet line), eGFP reporter, cell count; reporter expression induced with tamoxifen; inhibition, % at 2 µM; 130,000 compounds, 0.9% hits;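 active = inhibition above the mean plus 3 SD, with well images judged a real hit on visual review, cut at about 60% in these data, passing the limit was not always enough; inconclusive = inhibition over the cutoff but images rejected on review; inactive = inhibition not above the cutoff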
RGS16-Gao – modulators of RGS16 binding to Galphao, primary screen, biochemical, human proteins, multiplexed bead flow cytometry | Regulator of G-protein signaling 16 (Homo sapiens) + Guanine nucleotide-binding protein … | bead-based flow cytometry RGS16-Galphao binding, fluorescence; actives lie on both sides | binding response (% of control), % at 10 µM | 220,000 compounds, 0.38% hits | AID 1441, 2008;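 active = below 25% or above 175%, edge rows of some plates excepted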;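 also: Galphao activated by GDP with aluminum fluoride before binding; 100% = wells without compound and 0% = beads without RGS; some results beyond the cut were filed as inactive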
Target sequence (O15492 whole entry, looked up): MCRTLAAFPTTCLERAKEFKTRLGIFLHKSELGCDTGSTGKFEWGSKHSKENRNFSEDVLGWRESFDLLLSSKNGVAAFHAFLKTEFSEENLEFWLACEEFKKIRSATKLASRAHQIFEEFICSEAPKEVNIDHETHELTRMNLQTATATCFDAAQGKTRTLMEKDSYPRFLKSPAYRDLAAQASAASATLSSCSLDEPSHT
Target sequence (P09471 whole entry, looked up): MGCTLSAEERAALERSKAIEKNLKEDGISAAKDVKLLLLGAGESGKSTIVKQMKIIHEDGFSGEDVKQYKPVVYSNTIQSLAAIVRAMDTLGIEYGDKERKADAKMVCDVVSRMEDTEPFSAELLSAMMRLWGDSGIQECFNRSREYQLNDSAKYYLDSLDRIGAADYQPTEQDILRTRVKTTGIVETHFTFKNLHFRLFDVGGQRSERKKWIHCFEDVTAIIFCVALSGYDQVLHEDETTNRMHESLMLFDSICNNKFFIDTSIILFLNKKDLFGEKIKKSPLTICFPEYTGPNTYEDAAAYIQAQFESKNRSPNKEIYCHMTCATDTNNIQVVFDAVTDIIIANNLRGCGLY
INS promoter inh cell count – further read-out of INS promoter inh, marked with its call; normalized cell count, %; measured here: cell count, toxicity; reference of the scale not given here;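 cells exposed to compound for 48 h; stained nuclei by imaging scaled within each plate; lower means fewer cells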
HSV augment primary fold – also measured in HSV augment; calls as there; fold increase; compound at 10 µM; measured here: primary screen fold increase 10 uM; tested in PC3 cells;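 GFP signal in the first replicate; 1 = infected wells without compound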
An asterisk follows results filed as active; i = inactive; ? = inconclusive; . = no result given.

SMILES | GALR2 agonist | PKD1 inh | HSV augment | HSV augment primary fold | INS promoter inh | INS promoter inh cell count | RGS16-Gao
COc1ccc(-n2c(-c3ccc(F)cc3)cnc2SCC(=O)NCc2ccco2)cc1 | -2.5 | -5 | i | 1 | -32 | 81 | 107
COc1ccc(/C=C2\SC(=S)N(CC(=O)Nc3nnc(C)s3)C2=O)cc1 | -1.6 | -6 | . | . | 37 | 102 | 58
COc1cccc(C2CC(c3cccs3)=NN2C(=O)CSc2nc3c(cnn3-c3ccc(F)cc3)c(=O)[nH]2)c1OC (configuration not stated) | -1.5 | -3 | i | 0.81 | -61 | 52 | 116
CC(=O)c1ccc(OCCN2CCOCC2)cc1 | -0.4 | -7 | i | 1.1 | -22 | 100 | 103
COC(=O)c1c(NC(=S)Nc2ccc(C(=O)N3CCOCC3)cc2)sc2c1CCC2 | . | -5 | i | 0.98 | . | . | 106
COc1ccccc1NC(=O)CN1C(=O)CSC(C)C1=O (configuration not stated) | -1.4 | 8 | i | 1.2 | . | . | 100
CCOC(=O)c1cnc2ccc(C)cc2c1Nc1ccc(N2CCOCC2)cc1 | -2.5 | -6 | i | 0.79 | 43 | 97 | 101
Cc1nc2ccc(-c3ccccc3)cc2o1 | -0.9 | 4 | i | 0.94 | . | . | 98
C/C(=N\NS(=O)(=O)c1ccccc1)c1ccc2c(c1)OCO2 | . | -10 | i | 0.94 | 40 | 91 | 107
CCOc1ccccc1N(CC(=O)NC1CCCCC1)C(=O)CCCC(=O)Nc1ccccn1 | 0.1 | 1 | i | 1 | 36 | 108 | 102
O=C(COc1ccccc1)N1CCN(C(=O)Cc2ccccc2)CC1 | -1.9 | -4 | i | 1 | -57 | 139 | 107
COc1ccc(-c2cc3cc(OC)c(OC)cc3c(C)n2)cc1 | . | . | i | 0.91 | . | . | 95
CC(=O)Nc1nc(CCN2C(=O)c3ccccc3C2=O)cs1 | . | 7 | i | 0.92 | -8 | 58 | 128
Cc1nc2ccccc2nc1N1CCCC1 | . | . | i | 0.94 | . | . | 93
COc1ccc(/C=C2\N=C(SC)N(c3ccccc3OC)C2=O)cc1 | . | -4 | i | 0.8 | . | . | 103
Brc1ccc(-c2csc(N3CCc4ccccc4C3)n2)cc1 | 0.0 | -1 | i | 1 | -16 | 35 | 103
COC(=O)c1ccc(S(=O)(=O)NNC(=O)COc2ccc(C)cc2)cc1 | -0.5 | -2 | i | 1 | 0 | 82 | 98
CCn1ccnc1CN1CCCC(CO)(Cc2cccc(OC)c2)C1 (configuration not stated) | . | -6 | i | 0.96 | . | . | 102
O=C(Nc1cccc(-c2cn3ccccc3n2)c1)c1cnccn1 | 1.0 | 4 | i | 1 | 5 | 71 | 103
Cn1c(=O)oc2cc(S(=O)(=O)NCCc3ccccc3)ccc21 | -0.9 | -10 | i | 1.1 | -6 | 77 | 104
CSCc1cc(N2CCCC2)nc(-c2ccccc2)n1 | . | -5 | . | . | 0 | 187 | 108
O=C(Nc1ccc(NC(=O)C2CC2)nc1)c1cccnc1 | -1.4 | 0 | i | 0.95 | . | . | 100
CC(=O)Nc1ccc(OCC(O)CNC2CCCC2)cc1 (configuration not stated) | -2.2 | -7 | . | . | . | . | 98
O=C(Nn1cnc2ccccc2c1=O)c1ccccc1 | . | -3 | i | 1 | . | . | 101
COc1ccc(-c2nnc(NC(=O)c3ccc(S(=O)(=O)N4CCCc5ccccc54)cc3)o2)cc1 | -2.8 | -3 | . | . | . | . | 97
COc1cc2ccccc2cc1C(=O)NC(=S)Nc1cc(C(=O)O)ccc1C | . | -7 | i | 0.99 | -67 | 105 | 85
Cn1nnnc1SCCNCc1ccncc1 | -1.6 | -5 | i | 1 | . | . | 105
O=C(O)CCCC(=O)Nc1ccccc1C(=O)N1CCCC1 | -0.6 | -1 | i | 0.98 | 29 | 126 | 103
Cc1cc(Cl)c(S(=O)(=O)N2CC(C)OC(C)C2)cc1OCC(N)=O (configuration not stated) | -3.4 | -12 | i | 0.94 | 6 | 197 | 308
Cc1[nH]nc(-c2ccc(OCc3cnn(-c4ccccc4)c3)cc2O)c1Oc1ccc(Cl)cc1 | -3.0 | 2 | ? | . | 36 | 152 | 107
COCCN1C(=O)c2ccccc2C(C(=O)NCCCN2CCCC2=O)C1c1c[nH]c2ccccc12 (configuration not stated) | -0.7 | 1 | i | 0.99 | . | . | 99
COC(=O)CCCC1=CC2=CC(=O)C(C)(OC(=O)c3cccs3)C(=O)C2=CN1C1CCCCC1 (configuration not stated) | . | . | i | 0.84 | . | . | 96
CCCn1c(Nc2nc3ccccc3n2C)nc2ccccc21 | -2.1 | 5 | i | 0.78 | . | . | 95
COc1ccc(CCn2c(C3CCCCC3)nc3c(c(=O)c4ccccc4n3C)c2=O)cc1 | . | . | i | 0.72 | . | . | 101
Cc1cc(O)ccc1N1C(=O)c2cccc3cc([N+](=O)[O-])cc(c23)C1=O | . | 2 | i | 1.2 | -44 | 138 | 98
CC(C)(C)NC(=O)NC(=O)CSc1nncs1 | . | -1 | i | 1 | . | . | 104
Cc1ccsc1/C=N/NC(=O)CSCc1ccc(Cl)cc1 | -0.9 | -7 | i | 0.87 | -14 | 104 | 111
COc1ccc(-c2csc(-n3ncc(-c4cccs4)c3N)n2)cc1 | 0.1 | -7 | i | 1.1 | . | . | 104
O=C(CCC(=O)OCC(=O)c1cccc([N+](=O)[O-])c1)Nc1cccc(Cl)c1Cl | -1.8 | -8 | i | 0.75 | . | . | 98
COC(=O)CSc1nc(NCC(C)C)nc(N2CCOCC2)n1 | -1.6 | -9 | i | 0.91 | 56 | 69 | 99

Complete entries from above. Order of values: GALR2 agonist | PKD1 inh | HSV augment | HSV augment primary fold | INS promoter inh | INS promoter inh cell count | RGS16-Gao
CC(=O)Nc1nc(CCN2C(=O)c3ccccc3C2=O)cs1 in the list: . | 7 | i | 0.92 | -8 | 58 | 128
COc1ccc(CCn2c(C3CCCCC3)nc3c(c(=O)c4ccccc4n3C)c2=O)cc1 in the list: . | . | i | 0.72 | . | . | 101

New compounds follow.
SMILES | GALR2 agonist | PKD1 inh | HSV augment | HSV augment primary fold | INS promoter inh | INS promoter inh cell count | RGS16-Gao
Cc1ccc(-c2csc(N(CCCN3CCOCC3)C(=O)c3ccco3)n2)cc1 | -0.3 | 9 | i | 0.81 | -19 | 136 | 100
CC(=O)Nc1cccc(-c2cn3ccccc3n2)c1 | . | 2 | i | 1 | -5 | 72 | 100
Cc1cc(C)n(C(=O)CCCC(=O)n2nc(C)cc2C)n1 | -1.8 | 0 | i | 0.97 | 6 | 51 | 91
COC(=O)c1ccc(NC(=O)CN2CCOCC2)cc1 | -3.0 | 8 | i | 1.2 | . | . | 102
O=S(=O)(c1ccc(Cl)cc1)N1CCN(c2ncccn2)CC1 | . | 3 | i | 1.2 | . | . | 103
O=C(CSc1ccc(-c2ccccn2)nn1)N1CCCc2ccccc21 | . | 2 | i | 0.99 | . | . | 107
Cc1ccc(S(=O)(=O)NNC(=O)c2cccnc2)cc1 | . | -9 | i | 1 | 18 | 54 | 111
Cc1ccsc1C1Nc2ccc3ncccc3c2C2=C1C(=O)CCC2 (configuration not stated) | 0.5 | 9 | i | 0.89 | -23 | 47 | 97
Cc1ccc(NCc2nnc(SCC(=O)N3CCCc4ccccc43)o2)c(C)c1 | -1.3 | 0 | i | 1 | . | . | 105
Cc1c(NC(=O)CN2C(=O)C(=O)c3ccccc32)c(=O)n(-c2ccccc2)n1C | . | -2 | i | 1 | . | . | 102
O=c1[nH]c2cc3c(cc2cc1CN(CC1CCCO1)S(=O)(=O)c1ccccc1)OCCO3 (configuration not stated) | -0.3 | -4 | i | 0.87 | 37 | 107 | 105
CCOC(=O)C1C(=O)NC(N2CCCCC2)=NC1c1ccccc1 (configuration not stated) | -2.3 | -9 | i | 0.85 | 6 | 122 | 98
O=C(OCc1nc2ccccc2[n+]([O-])c1C(=O)c1ccccc1)c1ccco1 | . | . | i | 0.97 | . | . | 97
C(=N\Nc1nc(-c2ccccc2)cs1)/c1cccnc1 | -1.5 | 2 | i | 0.79 | -30 | 67 | 101
CN(Cc1ccc(F)cc1)C(=O)c1ccc2c(c1)NC(=O)CS2 | . | -2 | i | 0.91 | . | . | 104
O=C(CSc1ccccn1)N1CCOCC1 | -0.4 | 3 | i | 0.95 | . | . | 104
CCOc1ccc(NC(=O)c2ccccc2OC)cc1 | -3.4 | -8 | . | . | 10 | 106 | 98
CCCOC(=O)Nc1cc(OC)ccc1[N+](=O)[O-] | . | -1 | i | 1 | 63 | 54 | 102
Cc1ccc(NC(=O)C2CCN(S(=O)(=O)c3c(C)n[nH]c3C)CC2)nc1 | -2.7 | -11 | i | 0.99 | -19 | 134 | 92
CC1CC(C(F)(F)F)n2ncnc2N1 (configuration not stated) | -3.2 | 2 | i | 1 | -8 | 51 | 100
COc1ccccc1Oc1ccc(-c2cnc3ccccc3n2)cc1[N+](=O)[O-] | . | -7 | i | 0.83 | . | . | 99
Cc1cc(N2CCOCC2)n2nc(C)c(-c3ccccc3)c2n1 | -1.9 | -2 | i | 0.9 | 53 | 63 | 89
O=C(/C=C/c1ccc(F)cc1)N1CCCc2ccccc21 | . | -6 | i | 1 | -48 | 76 | 102
COc1cccc(OC)c1NC(=O)C1CCCN1C(=O)NCc1ccccc1 (configuration not stated) | -1.3 | 1 | i | 0.95 | . | . | 101
CCN1CCN(C(=O)CN(c2ccc(F)c(Cl)c2)S(C)(=O)=O)CC1 | . | 1 | i | 1 | . | . | 110
Nn1c(SCC(=O)Nc2ccc3c(c2)OCO3)nncc1=O | . | 2 | i | 0.96 | . | . | 103
CNC1=CC(=O)CC(c2ccccc2)C1 (configuration not stated) | . | -3 | i | 0.97 | -7 | 100 | 97
COc1nccnc1NS(=O)(=O)c1ccc(NC(=S)NC(=O)c2ccc(F)cc2)cc1 | -0.6 | -5 | i | 0.94 | 10 | 99 | 110
CC1CCC(=C(C#N)C(=O)Nc2cccc(Cl)c2)CC1 (configuration not stated) | -1.0 | -9 | i | 0.87 | 0 | 46 | 101
Cc1ccc(-c2nc(NC(=O)c3ccc(S(=O)(=O)N(CCC#N)CCC#N)cc3)sc2-c2ccccc2)cc1 | -0.7 | 5 | i | 0.89 | . | . | 102
C=CCNS(=O)(=O)CC12CCC(CC1=O)C2(C)C (configuration not stated) | -1.9 | -3 | i | 1 | 19 | 88 | 106
Cc1ccc(-c2nnn(CC(=O)N(c3cccc(F)c3)C(C(=O)NC(C)(C)C)c3ccco3)n2)o1 (configuration not stated) | . | -3 | i | 0.99 | -93 | 77 | 99
CN1CCN(c2ccc(Cl)cc2NC(=O)C2COc3ccccc3O2)CC1 (configuration not stated) | -0.2 | 18 | i | 0.86 | -46 | 40 | 111
Cc1cccc(C)c1OCC(=O)Nn1c(=O)[nH]c2ccccc2c1=O | . | -2 | i | 0.98 | 24 | 108 | 102
O=C(NC1CCCCC1)C12CC3CC(CC(Cl)(C3)C1)C2 | -2.6 | 6 | i | 0.98 | . | . | 102
Cc1ccc(S(=O)(=O)CC2CSc3nc(N)cc(=O)n32)cc1 (configuration not stated) | -2.2 | 0 | i | 0.55 | . | . | 100
Cc1noc(C)c1C(=O)NCCc1ccccc1 | 1.3 | 0 | i | 1 | -6 | 134 | -68
O=C(OCC(=O)N1CCC(Cc2ccccc2)CC1)c1ccccc1 | . | -1 | i | 1.1 | . | . | 103
CCc1ccc2c(c1)cc(CN(C(=S)Nc1ccccc1)C1CC1)c1nnnn12 | -1.9 | 7 | i | 1.2 | . | . | 91
O=C(NC(=S)Nc1ccc(Br)cn1)c1cccs1 | . | 14 | i | 1.1 | . | . | 103
COC(=O)Cc1ccc(NC(=S)NNC(=O)c2ccccc2Br)cc1 | -0.9 | -13 | i | 0.93 | . | . | 114

3 entries out of the list above, arranged by the value under HSV augment primary fold, smallest number first:
Molecule	HSV augment primary fold
COc1cccc(C2CC(c3cccs3)=NN2C(=O)CSc2nc3c(cnn3-c3ccc(F)cc3)c(=O)[nH]2)c1OC (configuration not stated)	0.81
Cc1ccc(-c2nnn(CC(=O)N(c3cccc(F)c3)C(C(=O)NC(C)(C)C)c3ccco3)n2)o1 (configuration not stated)	0.99
COc1ccccc1NC(=O)CN1C(=O)CSC(C)C1=O (configuration not stated)	1.2

As entered above:
`CC1CCC(=C(C#N)C(=O)Nc2cccc(Cl)c2)CC1` (configuration not stated) in GALR2 agonist is listed with -1.0
`Cc1ccc(S(=O)(=O)CC2CSc3nc(N)cc(=O)n32)cc1` (configuration not stated) in PKD1 inh is listed with 0
